FGF22 binding – binders of human FGF22 protein, primary screen, FGF22 synaptogenesis inhibitor project, biophysical, thermal shift, single point. Fibroblast growth factor 22 (Homo sapiens), Q9HCT0. recombinant FGF22 thermal shift, SYPRO orange fluorescence; percent of sucrose octasulfate shift, DMSO zero. calls only at 9.99 µM. 340,000 compounds, 1.5% hits. AID 651658, 2012;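 active = melting point raised past a set limit in the mean and every replicate; three in four hits are not shown here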
Target sequence (Q9HCT0 whole entry, looked up): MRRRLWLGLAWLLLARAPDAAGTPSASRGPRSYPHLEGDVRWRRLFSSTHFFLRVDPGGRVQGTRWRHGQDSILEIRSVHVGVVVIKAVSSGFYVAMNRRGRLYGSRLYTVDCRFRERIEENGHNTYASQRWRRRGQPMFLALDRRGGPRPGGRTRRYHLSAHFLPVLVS
rRNA inh HTS – reduced GFP signal of wild-type E. coli, primary screen, bacterial rRNA inhibitor project, GFP/RFP fluorescence, OD600, single point; 350,000 compounds, 1.6% hits; E. coli WT GFP vs humanized-ribosome RFP mutants, 24 h; stronger effect = lower value; DMSO median 0, no signal -100; GFP signal change (wild-type ribosome), % (no concentration beside the values);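 active = significant combined selectivity score with lowered wild-type GFP, culture density cut under 30%, mutant RFP and density less affected; inactive = any of these conditions unmet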; note: one replicate is shown; some compounds called inactive have numbers as strong as hits
rRNA inh HTS OD600 – also measured in rRNA inh HTS; calls as there; OD600 change, %; measured here: OD600 growth;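 optical density of the mix in the first replicate; 0 = DMSO median and -100 = no signal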
rRNA inh HTS RFP – further read-out of rRNA inh HTS, marked with its call; RFP signal change, %; measured here: RFP humanized mutant strains;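 first replicate; 0 = DMSO median and -100 = no signal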
An asterisk follows results filed as active; i = inactive.

SMILES	FGF22 binding	rRNA inh HTS	rRNA inh HTS OD600	rRNA inh HTS RFP
O=C(C[C@@H]1CC[C@H]2[C@@H](COC[C@@H](O)CN2Cc2ccc(F)cc2)O1)NCc1ccccc1Cl	i	-4	9	7.0
COc1ccc(NC(=O)Nc2ccc3c(c2)C(=O)N([C@H](C)CO)C[C@H](C)[C@@H](CN(C)S(=O)(=O)c2ccc(F)cc2)OCCCC[C@@H](C)O3)cc1	i	1	4	1.1
COc1ccc(CN(C)C[C@@H]2Oc3c(NC(=O)Nc4ccc(F)cc4)cccc3C(=O)N([C@@H](C)CO)C[C@H]2C)cc1	i	-4	-11	0.7
O=C(O)C[C@H]1C[C@@H]2c3cc(NC(=O)c4ccc5c(c4)OCO5)ccc3O[C@@H]2[C@H](CO)O1	i	1	8	-5.9
C[C@H](CO)N1C[C@H](C)[C@H](CN(C)S(=O)(=O)c2ccccc2)Oc2ncc(C#Cc3ccccc3)cc2C1=O	i	9	23	-0.4
COc1cccc(-c2ccc([C@H]3[C@H](CO)N4C(=O)CN(C(=O)NC(C)C)C[C@@H]34)cc2)c1	i	3	8	-2.7
O=C(Cc1ccccc1)N1C[C@H]2[C@@H](c3ccccc31)[C@@H](CO)N2C(=O)c1cccc(F)c1	i	1	-3	-0.2
C[C@H](CO)N1C[C@H](C)[C@H](CN(C)C(=O)Nc2ccc3c(c2)OCO3)Oc2ccc(NC(=O)C3CC3)cc2CC1=O	i	-2	2	-4.3
C[C@@H]1CN([C@H](C)CO)C(=O)c2cc(-c3ccccc3F)cnc2O[C@@H]1CN(C)Cc1ccccc1F	i	-1	1	5.8
COc1ccc(S(=O)(=O)N[C@@H]2CC[C@@H](CC(=O)O)O[C@@H]2CO)cc1	i	2	-8	-0.5

Sorted by the number under rRNA inh HTS (smallest number first): four from the list above.
| SMILES | rRNA inh HTS | rRNA inh HTS OD600 | rRNA inh HTS RFP |
| --- | --- | --- | --- |
| O=C(C[C@@H]1CC[C@H]2[C@@H](COC[C@@H](O)CN2Cc2ccc(F)cc2)O1)NCc1ccccc1Cl | -4 | 9 | 7.0 |
| C[C@@H]1CN([C@H](C)CO)C(=O)c2cc(-c3ccccc3F)cnc2O[C@@H]1CN(C)Cc1ccccc1F | -1 | 1 | 5.8 |
| COc1ccc(NC(=O)Nc2ccc3c(c2)C(=O)N([C@H](C)CO)C[C@H](C)[C@@H](CN(C)S(=O)(=O)c2ccc(F)cc2)OCCCC[C@@H](C)O3)cc1 | 1 | 4 | 1.1 |
| COc1ccc(S(=O)(=O)N[C@@H]2CC[C@@H](CC(=O)O)O[C@@H]2CO)cc1 | 2 | -8 | -0.5 |

(next part)
SMILES	FGF22 binding	rRNA inh HTS	rRNA inh HTS OD600	rRNA inh HTS RFP
CCN1[C@@H]2c3ccc(-c4ccccc4)c(=O)n3C[C@@H]2[C@@H](CO)[C@@H]1C(=O)NCC1CC1	i	0	3	1.1
CN1CCN(C(=O)C[C@H]2CC[C@@H]3[C@H](COC[C@@H](O)CN3C(=O)Nc3ccc(F)cc3)O2)CC1	i	4	12	-3.4
CO[C@H]1CC[C@@H]2CCOc3c(C#N)cccc3C(=O)N(C)C[C@H](OC)[C@H](C)C(=O)N(C)C[C@@H]1O2	i	2	4	-2.9
COc1ccccc1-c1ccc2n(c1=O)C[C@H]1[C@H](CO)[C@@H](C(=O)N(C)C)[C@@H]2N1C(=O)c1cccnc1	i	3	2	-0.7
CCCNC(=O)N1[C@H](C#N)[C@@H](c2ccccc2-c2cccc(C)c2)[C@@H]1CO	i	-14	-47	-4.0
Cc1ccc(S(=O)(=O)Nc2ccc3c(c2)CC(=O)N([C@@H](C)CO)C[C@H](C)[C@H](CN(C)C(=O)NC(C)C)O3)cc1	i	1	3	-0.9
COc1ccc(CN(C)C[C@@H]2Oc3ccc(NC(=O)Cc4ccccc4)cc3C(=O)N([C@@H](C)CO)C[C@@H]2C)cc1	i	2	-2	-0.9
CC(=O)N1C[C@@H]2[C@H](c3ccccc31)[C@@H](CO)N2C(=O)Nc1ccc(F)cc1	i	3	4	-2.7
CCC(=O)N1CC2(C1)[C@@H](c1ccc(-c3ccccc3)cc1)[C@@H](CO)N2S(C)(=O)=O	i	1	-7	-1.3
Cc1ccc(S(=O)(=O)Nc2ccc3c(c2)C(=O)N([C@H](C)CO)C[C@H](C)[C@H](CN(C)S(=O)(=O)c2ccc(F)cc2)OCCCC[C@H](C)O3)cc1	i	-4	-3	-1.6
COc1cccc(NC(=O)N(C)C[C@@H]2Oc3ncc(C#Cc4ccccc4)cc3C(=O)N([C@@H](C)CO)C[C@@H]2C)c1	i	0	-3	1.4
COc1ccc2c3c([nH]c2c1)[C@H](CO)N(Cc1nccs1)CC31CCN(C(=O)C2CC2)CC1	i	3	-2	2.5
COc1ccccc1CNC(=O)C[C@@H]1C[C@@H]2c3cc(NC(=O)C4CCC4)ccc3O[C@@H]2[C@@H](CO)O1	i	-5	-5	2.1
COc1ccc(NC(=O)N(C)C[C@H]2Oc3c(NS(C)(=O)=O)cccc3C(=O)N([C@H](C)CO)C[C@@H]2C)cc1	i	2	-1	0.7
CC(C)CC#Cc1cnc2c(c1)C(=O)N([C@@H](C)CO)C[C@H](C)[C@@H](CN(C)S(=O)(=O)c1cn(C)cn1)O2	i	-3	1	-0.5
COc1ccc(-c2ccc3c(c2)[C@@H]2[C@@H](CCN2C(=O)C2CCOCC2)[C@@H](CO)N3C)cc1	i	-6	-8	-2.0
CC(C)NC(=O)N(C)C[C@H]1Oc2ccc(NS(=O)(=O)c3ccc(Cl)cc3)cc2C(=O)N([C@H](C)CO)C[C@H]1C	i	0	-3	-0.8
CCCNC(=O)C[C@H]1CC[C@H]2[C@@H](COC[C@H](O)CN2C(=O)c2ccccn2)O1	i	8	10	0.7
Cc1ccc(S(=O)(=O)Nc2ccc3c(c2)C(=O)N([C@@H](C)CO)C[C@H](C)[C@@H](CN(C)Cc2ccc4c(c2)OCO4)OCCCC[C@H](C)O3)cc1	i	2	-4	6.1
Cc1ccc(S(=O)(=O)N(C)C[C@H]2Oc3ccc(NC(=O)Nc4ccc5c(c4)OCO5)cc3CC(=O)N([C@@H](C)CO)C[C@H]2C)cc1	i	1	-3	-1.1

A run of entries from the list above, for reference:
SMILES	FGF22 binding	rRNA inh HTS	rRNA inh HTS OD600	rRNA inh HTS RFP
O=C(C[C@@H]1CC[C@H]2[C@@H](COC[C@@H](O)CN2Cc2ccc(F)cc2)O1)NCc1ccccc1Cl	i	-4	9	7.0
COc1ccc(NC(=O)Nc2ccc3c(c2)C(=O)N([C@H](C)CO)C[C@H](C)[C@@H](CN(C)S(=O)(=O)c2ccc(F)cc2)OCCCC[C@@H](C)O3)cc1	i	1	4	1.1

Further compounds:
SMILES	FGF22 binding	rRNA inh HTS	rRNA inh HTS OD600	rRNA inh HTS RFP
CO[C@H]1CN(C)C(=O)c2cc(NC(=O)c3ccno3)ccc2OC[C@@H](C)N(S(C)(=O)=O)C[C@@H]1C	i	0	0	-0.4
N#C[C@@H]1[C@@H](c2ccc(C#CC3CC3)cc2)[C@@H](CO)N1S(=O)(=O)Cc1ccccc1	i	1	1	1.9
COc1ccc(C#Cc2ccc3c(c2)O[C@H](CN(C)C(=O)c2ccccn2)[C@H](C)CN([C@H](C)CO)S3(=O)=O)cc1	i	0	-12	9.0
C[C@@H]1CN([C@H](C)CO)C(=O)Cc2cc(NS(=O)(=O)c3ccc(F)cc3)ccc2O[C@H]1CN(C)S(=O)(=O)c1ccc(Cl)cc1	i	1	1	0.2
C[C@H]1CN([C@@H](C)CO)C(=O)c2cc(C#CCN(C)C)cnc2O[C@H]1CN(C)C(=O)c1ccc(F)cc1	i	-1	-7	-1.1
Cc1ccc(S(=O)(=O)N(C)C[C@@H]2Oc3c(NC(=O)CCCCCC(=O)Nc4ccccc4N)cccc3C(=O)N([C@@H](C)CO)C[C@H]2C)cc1	i	-3	-5	-0.2
CCCN(C)C[C@H]1Oc2cc(C#Cc3ccc(F)cc3)ccc2S(=O)(=O)N([C@@H](C)CO)C[C@H]1C	i	-3	-4	3.8
CO[C@H](CN(C)C(=O)c1ccc2c(c1)OCO2)[C@@H](C)CN([C@@H](C)CO)S(=O)(=O)c1ccc(C)cc1	i	1	10	-3.0
C[C@@H](NC(=O)C[C@H]1C=C[C@@H](NS(=O)(=O)c2cccc(F)c2)[C@H](CO)O1)c1ccccc1	i	1	0	-2.0
C[C@H]1CN([C@@H](C)CO)S(=O)(=O)c2ccc(-c3ccc(F)cc3)cc2O[C@H]1CN(C)CC1CC1	i	2	-2	2.9
CCCNC(=O)C[C@@H]1CC[C@@H]2[C@H](COC[C@@H](O)CN2C(=O)c2ccc(F)cc2)O1	i	3	17	30
CCCNC(=O)C[C@@H]1C[C@@H]2c3cc(NC(=O)Nc4ccccc4)ccc3O[C@@H]2[C@@H](CO)O1	i	2	2	0.4
O=C(Cc1ccccn1)N[C@@H]1CC[C@@H](CCNS(=O)(=O)c2cccc(F)c2)O[C@H]1CO	i	4	10	2.0
C[C@H]1CN([C@@H](C)CO)C(=O)c2cccc(NC(=O)c3nc4ccccc4s3)c2O[C@H]1CN(C)Cc1ccc(C(F)(F)F)cc1	i	-3	2	-2.5
C[C@H]1CN([C@@H](C)CO)C(=O)c2cc(NC(=O)Nc3ccc4c(c3)OCO4)ccc2O[C@@H]1CN(C)Cc1ccc(C(=O)O)cc1	i	-3	1	1.0
COCCN(C[C@H]1[C@H](c2ccccc2)[C@H](CO)N1C(C)=O)C(=O)c1cccnc1	i	5	9	-0.4
O=C(Nc1ccccc1)N1CCCCN2[C@H](CO)[C@H](c3ccc(-c4ccncc4)cc3)[C@H]2C1	i	-4	1	-1.6
CC(C)NC(=O)N1[C@@H](CO)[C@@H]2c3ccccc3N(C(=O)Nc3ccc(Cl)cc3)C[C@@H]21	i	-31	-26	-1.7
C[C@@H]1CCCCO[C@@H](CN(C)C(=O)Nc2cccc3ccccc23)[C@@H](C)CN([C@H](C)CO)C(=O)c2cc(NS(=O)(=O)c3ccc(Cl)cc3)ccc2O1	i	2	4	3.1
Cc1cc(C(=O)Nc2ccc3c(c2)C(=O)N(C)[C@H]2CC[C@@H](CC(=O)N[C@@H](C)c4ccccc4)O[C@@H]2CO3)no1	i	-1	11	-1.0
Cn1cnc(S(=O)(=O)N2CCCCN3[C@H](CO)[C@@H](c4ccc(-c5ccc(F)cc5)cc4)[C@H]3C2)c1	i	3	14	-4.1
CCC(=O)N1CCCCN2[C@H](CO)[C@@H](c3ccc(-c4cccnc4)cc3)[C@H]2C1	i	5	4	-3.2
C[C@H](CO)N1C[C@H](C)[C@H](CN(C)C(=O)c2ccccc2)Oc2cc(/C=C/c3ccccc3)ccc2S1(=O)=O	i	-6	2	-0.9
CO[C@H]1CN(C)C(=O)c2cc(NC(C)=O)ccc2OC[C@H](C)N(C(=O)c2ccccc2)C[C@@H]1C	i	-1	2	0.1
N#C[C@@H]1[C@@H](c2ccc(-c3ccccc3)cc2)[C@H](CO)N1C(=O)Cc1ccccc1	i	-21	-61	18
C[C@H](CO)N1C[C@H](C)[C@@H](CN(C)C(=O)Cc2cccnc2)Oc2ncc(-c3ccccc3)cc2C1=O	i	1	-9	-2.2
C[C@@H]1CCCCO[C@H](CN(C)C(=O)Nc2ccc(F)cc2)[C@H](C)CN([C@H](C)CO)C(=O)c2cc(NS(=O)(=O)c3cccs3)ccc2O1	i	-2	1	0.5
C[C@@H]1CCCCO[C@H](CN(C)C(=O)Nc2ccccc2)[C@@H](C)CN([C@H](C)CO)C(=O)c2cc(NC(=O)C3CCCCC3)ccc2O1	i	1	7	-1.1
C[C@@H]1CN([C@@H](C)CO)C(=O)Cc2cc(NC(=O)CCCCCC(=O)Nc3ccccc3N)ccc2O[C@H]1CN(C)S(=O)(=O)c1ccc(F)cc1	i	5	4	-0.5
CN(C)CC(=O)Nc1ccc2c(c1)[C@@H]1C[C@H](CC(=O)NCc3ccccc3)O[C@H](CO)[C@@H]1O2	i	3	0	-0.6
CCCC#Cc1ccc2c(c1)O[C@@H](CN(C)C(=O)c1ccccc1F)[C@@H](C)CN([C@@H](C)CO)S2(=O)=O	i	-5	-18	5.3
COc1ccc(S(=O)(=O)N(C)C[C@H]2OCCCC[C@H](C)Oc3ccc(NC(=O)c4ccccc4)cc3C(=O)N([C@H](C)CO)C[C@@H]2C)cc1	i	1	10	0.3
Cc1noc(C)c1S(=O)(=O)Nc1cccc2c1O[C@H](CN(C)Cc1ccc(C(=O)Nc3ccccc3N)cc1)[C@H](C)CN([C@@H](C)CO)C2=O	i	3	0	-0.9
COC(=O)C1=C(C)N(Cc2ccccc2C(F)(F)F)C(=NCc2cccc(C(F)(F)F)c2)NC1c1cccc(Cl)c1 (stereo not drawn)	i	-30	-37	13
CN(C)C(=O)c1cccc(-c2ccc([C@H]3[C@@H](CO)N4CCCCN(C(=O)C5CCC5)C[C@H]34)cc2)c1	i	2	10	1.6
O=S1(=O)N[C@@H](Cc2ccccc2)COc2cccc(N3CCCCC3)c21	i	-35	-60	0.6
C[C@@H]1CN([C@@H](C)CO)C(=O)c2cccc(NS(=O)(=O)c3ccc(F)cc3)c2O[C@@H]1CN(C)CC1CC1	i	4	2	1.3
O=C(NC1CCCC1)N1CC(=O)N2[C@H](CO)[C@H](c3ccc(C4=CCCCC4)cc3)[C@@H]2C1	i	-32	-63	9.7

Screening results: PubChem BioAssay, Broad Institute

A portion of the library; count on the stated rates, not on these rows.
